Menin MLL FP FL – menin-MLL binding inhibition, fluorescein peptide. Fluorescence polarization, fluorescein-MLL peptide displacement from menin. FP activity change, % at 61.4 µM. 290,000 tested, under 10 active. AID 1766; inconclusive = falling polarisation curve, or a change in total fluorescence; inactive = total fluorescence flat and polarisation flat or rising; no compound was filed as active; the % refers to the polarisation; negative = inhibition;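 further: % of control where 0% means no effect; inhibitors lower the polarisation; unlabelled MLL peptide was the positive control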
TRPML1 inh – inhibitors of human TRPML1 channel. Q9GZU1. TRPML1-inducible cells, Ca2+ dye fluorescence, FDSS; active compounds read low; inhibition of EC80 agonist-evoked calcium signal. activity change, negative = inhibition, % (test concentration not listed). hit rate 0.02% among 390,000. AID 624415; in the data active means activity change below about -50%; inconclusive means about -30% to -50%; inactive means above about -30%;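 further: stimulus is agonist 54-4 at its EC80 concentration; on the % scale 0 is the no-effect control and ±100 the full control effect; compound concentration not given in the record; the text of the record puts the active cut at -80%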
Target sequence (Q9GZU1 whole entry, looked up): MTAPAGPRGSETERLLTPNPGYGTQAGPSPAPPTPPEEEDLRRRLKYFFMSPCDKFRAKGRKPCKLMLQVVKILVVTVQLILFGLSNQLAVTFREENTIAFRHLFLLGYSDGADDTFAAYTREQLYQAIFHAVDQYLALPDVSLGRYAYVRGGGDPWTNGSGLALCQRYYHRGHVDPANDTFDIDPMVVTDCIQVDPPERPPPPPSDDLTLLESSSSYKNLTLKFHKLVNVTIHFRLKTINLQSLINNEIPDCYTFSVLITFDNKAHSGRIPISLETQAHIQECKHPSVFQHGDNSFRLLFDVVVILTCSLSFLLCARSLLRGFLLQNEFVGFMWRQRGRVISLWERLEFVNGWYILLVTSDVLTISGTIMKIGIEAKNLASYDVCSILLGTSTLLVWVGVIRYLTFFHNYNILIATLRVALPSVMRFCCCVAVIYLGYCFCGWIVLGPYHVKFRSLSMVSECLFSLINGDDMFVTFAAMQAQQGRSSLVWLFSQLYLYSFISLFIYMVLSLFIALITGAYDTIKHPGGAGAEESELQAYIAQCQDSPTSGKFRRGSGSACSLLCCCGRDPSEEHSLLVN
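Tet-induced TRPML1-DL cells loaded with Ca8 no-wash calcium dye were read kinetically on FDSS. Compound addition was followed by EC80 agonist 54-4 (4 uM final); inhibition was read over 110 s.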
gsp ag – gsp mutant agonism. Potency, µM (top dose mostly 76.9 µM), for inactives: at the highest dose activation (cAMP increase), actives largely listed as activators. AID 624287. gsp mutant cells, cAMP HTRF, 30 min; control for the full effect not named in the record. hit rate 0.13% among 340,000; active = well fitted activation curve with a large enough effect; inconclusive = small, poorly fitted or top-dose-only effect, or another doubt; inactive = no such curve, though single readings can be large or run the other way; cell line not stated here;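 further: phosphodiesterase inhibitor Ro 20-1724 added with compounds to block cAMP breakdown; potency means the concentration at half of the fitted maximal effect; nearly all actives have a fitted effect of over 60% in size; about a fifth of the inactives were tested at one dose only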
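Cells stably selected in G418 were plated at 2000/well, grown 16-24 hr, then given compounds in DMSO with the PDE inhibitor […] (300 uM solution added) for 30 min at 37C; cAMP was read by HTRF.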
TRPML1 ag – human mucolipin-1 channel agonism. Q9GZU1. TRPML1-expressing cells, Ca2+ dye fluorescence, FDSS; host cell line not named in the record; reference of the full effect not given here. activation, % (concentration not given with the values). hit rate 0.12% among 410,000. AID 624414; in the data active = activation above about 50%; inconclusive = about 30% to 50%; inactive = below about 30%; further: 0% is about no effect; the text of the record puts the active cut at 80%
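Tetracycline-induced TRPML1-DL cells are seeded and incubated overnight before loading with a no-wash Ca2+ dye and quencher. Agonist activity is taken from the 110 s fluorescence read following compound pin-transfer on an FDSS, before EC80 54-4 challenge.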
ClpP mod – qHTS Assay for Activators of ClpP; hit rate 1.9% among 340,000; purified B. subtilis ClpP, FRET peptide cleavage, 20 min; AID 651965, 2013; Potency, µM (doses to about 57.5 µM), for the others: at the top dose activity change, negative = active; ATP-dependent Clp protease proteolytic subunit (Bacillus subtilis (strain 168)), P80244; active = well fitted falling curve with a large enough effect; inconclusive = small, poorly fitted or top-dose-only effect; inactive = no such curve, though single readings can be large or run the other way; further: potency means the concentration at half of the fitted maximal effect; the source files actives as falling curves though it sought activators and does not explain the sign; nearly all actives have a fitted effect of over 65% in size; many hits overshoot -100%
Target sequence (P80244 whole entry, looked up): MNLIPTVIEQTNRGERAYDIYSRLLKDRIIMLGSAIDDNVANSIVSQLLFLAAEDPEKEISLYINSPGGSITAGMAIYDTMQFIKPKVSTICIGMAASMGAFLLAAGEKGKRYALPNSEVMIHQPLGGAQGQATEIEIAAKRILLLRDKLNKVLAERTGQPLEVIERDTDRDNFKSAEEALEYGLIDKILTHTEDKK
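FRET quenching reversal measured ClpP activation: 10 microg/mL B. subtilis ClpP at pH 8 with the FRET-FV decapeptide, read at 430 nm after 320 nm excitation. The 20-min minus 0-min signal was scaled between DMSO/no-enzyme wells and ADEP (5.8 microM final).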
gsp antagonist – antagonists of gsp mutant (McCune-Albright syndrome); gsp-mutant cells, cAMP HTRF, 30 min; control for the full effect not named in the record; Potency, µM (titrated, usually from 76.9 µM), for the others: at the highest dose activity change, negative = inhibition, most hits filed as inhibitors; hit rate 0.4% among 340,000; AID 624288; active = falling curve of any shape with a large fitted effect; inconclusive = falling curve, mostly with a smaller effect; inactive = flat or rising curve; cell line not stated here;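 further: intracellular cAMP measured with PDE inhibitor Ro 20-1724 present during compound exposure; potency means the concentration at half of the fitted maximal effect; on the % scale 0 is the no-effect control and ±100 the full control effect; nearly all actives have a fitted effect of over 65% in size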
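Cells in G418 medium, seeded 16-24 h, 37C; buffer exchange to DPBS + 1 mM CaCl2, 0.5 mM MgCl2, 0.05% BSA; cpds in DMSO + […] (300 uM stock), 30 min 37C; HTRF cAMP detection.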
An asterisk follows results filed as active; u = inconclusive; x = no result given; & = joins results of further samples; [ ] = dose if it differs, or a comment. Random draw from the library; 2.1% or so of the library scored in one or more.

SMILES | Menin MLL FP FL | TRPML1 inh | gsp ag | TRPML1 ag | ClpP mod | gsp antagonist
Cc1ccc(NC(=S)NC(NC(=O)C(C)(C)C)C(Cl)(Cl)Cl)c(C)c1 (stereo unspecified) | 3.0 | -5 | -8% | 0.0 | -18% | -7%
Cc1cccc(OCC(=O)Nc2ccc3c(c2)nc(CCN2CCN(C)CC2)n3C)c1 | 8.2 | -10 | -5% | -0.6 | -14% | 5%
CCOc1ccccc1C(=O)NCC(=O)NCc1ccc(S(=O)(=O)N2CCOCC2)cc1 | x | 5 | 32µM* | -0.8 | -0.7% | -10%
Cc1nn(CC(=O)N(C)C2CCC(C)CC2)c(C)c1S(=O)(=O)N(C)C (stereo unspecified) | x | 27 | -28% | 0.7 | -1.3% | 8%
CCc1ccc(C(=O)c2cn(CC(=O)Nc3ccc4c(c3)OCO4)c3ccc(F)cc3c2=O)cc1 | x | 10 | x | 1.4 | -2.0% | x
CCNC(=S)N/N=C/c1ccc(OCC(=O)Nc2ccc(C)cc2)cc1 | 4.0 | 0 | -35% | 1.0 | 1.1% | -10%
Cc1cccc(C(=O)NC(=S)Nc2ccc(S(=O)(=O)N3CCN(C)CC3)cc2)c1 | -0.2 | 0 | -36%[inhibitor] | 0.2 | 0.8% | -8%
O=C(N/N=C1/CC2C=CCC12)c1ccc(Br)o1 (stereo unspecified) | -1.2 | 6 | -7% | -0.6 | -3.2% | 9%
Cc1cc(C)c2c(N)c(C(=O)NN3CC(=O)N(c4ccccc4)CC3=O)sc2n1 | 2.5 | 40 | 24% | 0.9 | 3.7% | -7%
Cc1ccc(S(=O)(=O)N2C[C@@H]3[C@H]4CC[C@H](C4)[C@@H]3[C@@H](C)C2CC(=O)c2ccccc2)cc1 (stereo partly specified) | x | -25 | x | 4.1 | -1.8% | -9%
CC(C)S(=O)(=O)c1cnc(N2CCOCC2)nc1N | -0.5 | -2 | -2% | 0.3 | x | 6%
CCc1nnc(NC(=O)OCc2ccccc2)s1 | 1.5 | 24 | -2% | 0.4 | -0.6% | 8%
Cc1cc(S(=O)(=O)N2CCCC2)ccc1OCC(=O)N1CCCCC1 | x | 26 | 4%[15.4 µM] | 0.1 | x | -4%
CC(C)(CCl)C(=O)Nc1ccc(OC(F)(F)F)cc1 | -4.0 | 16 | 14% | -0.7 | x | -8%
O=C(Nc1ccc(C(=O)N2CCC(N3CCCC3)CC2)cc1)c1ccc(Br)o1 | x | -7 | x | -0.1 | 1.5% | 9%
O=C(CSc1ccc(-c2ccccn2)nn1)NC1CCCCC1 | -0.5 | 6 | 10%[15.4 µM] | 0.7 | x | 2%
O=C(Cc1cccs1)NCCc1cn2ccccc2n1 | 2.4 | 5 | u | -0.1 | 4.3% | 5%
COc1ccc(NC(=O)NCc2ccc3c(c2)OCO3)cc1OC | 0.4 | -3 | -5%[15.4 µM] | -0.4 | 1.4% | 13%
Cc1cc(C(=O)OCC(=O)N2CCC(C)CC2)c2ccccc2n1 | x | 6 | u | -0.3 | -12% | -11%
CCC(Oc1ccccc1)C(=O)Nc1ccccc1N1CCCC1 (stereo unspecified) | -0.1 | -10 | u | 4.9 | -0.8% | -16%
CC(C)NC(=O)N(C)C[C@@H]1Oc2cc(Br)ccc2S(=O)(=O)N([C@@H](C)CO)C[C@H]1C | x | 22 | -105% | -0.5 | -0.3% | x
CCn1c(=O)c(C(=O)Nc2cc(OC)c(OC)c(OC)c2)nc2ccccc21 | x | -21 | x | -0.6 | -0.4% | x
Cc1ccc(SC[C@H](C)CN2CC[C@H](C(C)(C)C)CCC2=O)cc1 | -0.2 | 32 | x | 0.7&-0.5 | 0.0%&1.8% | -19%
Cn1ncc([N+](=O)[O-])c1C(=O)Nc1ccc(C2CCCCC2)cc1 | 0.4 | 5 | -19% | -0.2 | x | 5%
CCOC(=O)C1=NN(c2ccccc2)C(=O)/C1=C\c1ccc(N(C)C)cc1 | 2.9 | 3 | -29% | 1.0 | -0.9% | 3%
Cc1ccc(-c2cc(C(=O)Oc3ccc(C#N)cc3)no2)cc1C | x | -2 | x | -0.6 | -0.2% | x
FC(F)(F)c1cccc(NC(=S)N2CCN(c3cccc(C(F)(F)F)c3)CC2)c1 | -5.7 | -12 | 1% | -0.4 | -1.3% | -5%
COCCCNC(=O)C1CCC(CNS(=O)(=O)c2ccc3c(c2)CC(C)N3C(=O)C2CC2)CC1 (stereo unspecified) | x | 6 | -44%[inhibitor] | -0.3 | 0.1% | -3%
CC(C)(CNc1ccc(S(=O)(=O)C(F)(F)F)cc1[N+](=O)[O-])N1CCOCC1 | x | 74 | 12% | 0.3 | -0.7% | u
CN(C)c1ccc(NC(=O)c2cn(-c3ccccc3)nc2-c2cccs2)cc1 | 2.3 | 24 | 1% | 0.7 | -12% | -1%

Arranged by length of the SMILES (smallest number first): part of the list above
SMILES | Menin MLL FP FL | TRPML1 inh | gsp ag | TRPML1 ag | ClpP mod | gsp antagonist
Cc1ccc(-c2cc(C(=O)Oc3ccc(C#N)cc3)no2)cc1C | x | -2 | x | -0.6 | -0.2% | x
CN(C)c1ccc(NC(=O)c2cn(-c3ccccc3)nc2-c2cccs2)cc1 | 2.3 | 24 | 1% | 0.7 | -12% | -1%
FC(F)(F)c1cccc(NC(=S)N2CCN(c3cccc(C(F)(F)F)c3)CC2)c1 | -5.7 | -12 | 1% | -0.4 | -1.3% | -5%
CC(C)(CNc1ccc(S(=O)(=O)C(F)(F)F)cc1[N+](=O)[O-])N1CCOCC1 | x | 74 | 12% | 0.3 | -0.7% | u
COCCCNC(=O)C1CCC(CNS(=O)(=O)c2ccc3c(c2)CC(C)N3C(=O)C2CC2)CC1 (stereo unspecified) | x | 6 | -44%[inhibitor] | -0.3 | 0.1% | -3%
CC(C)NC(=O)N(C)C[C@@H]1Oc2cc(Br)ccc2S(=O)(=O)N([C@@H](C)CO)C[C@H]1C | x | 22 | -105% | -0.5 | -0.3% | x

(cont.)
SMILES | Menin MLL FP FL | TRPML1 inh | gsp ag | TRPML1 ag | ClpP mod | gsp antagonist
O=C(COC(=O)c1ccc(F)cc1F)Nc1ncccn1 | -21 | 46 | 0%[15.4 µM] | -0.8 | x | 4%
COc1cccc(/C=C2\SC(=S)N(CCC(=O)NCCc3ccc(O)cc3)C2=O)c1 | 2.9 | -14 | u | -0.4 | -0.3% | -11%
O=C(NCc1ccccc1)c1noc2c1CCCC2 | -1.3 | -16 | u | 0.4 | 0.4% | 0%
O=C(O)c1ccc2c(c1)C(=O)N(c1ccc([N+](=O)[O-])cn1)C2=O | -2.8 | -11 | 1%[15.4 µM] | -0.2 | -1.5% | 8%
CC(=O)Nc1ccc(S(=O)(=O)N(C)CC(=O)NC2=NCCS2)cc1 | -0.3 | 21 | 2% | -0.4 | -24% | 6%
COc1cc(NC(=O)CCNS(=O)(=O)c2cc(Br)cnc2N)cc(OC)c1 | x | 11 | -40%[inhibitor] | -0.3 | -8.3% | -2%
COc1ccc(/C(N)=N/OC(=O)Cc2ccc(C)cc2)cc1 | 5.3 | -5 | 10%[15.4 µM] | 2.9 | x | 2%
C[C@]12CCC3c4ccc(OCC(=O)O)cc4CCC3C1CCC2=O (stereo partly specified) | 2.3 | -6 | -2% | 3.5 | 0.0% | -8%
C#CCn1cc(/C=N/Nc2nc3ccccc3[nH]2)c2ccccc21 | 13 | u | 5%[15.4 µM] | 1.9 | -1.1% | -39%
Cn1nc([N+](=O)[O-])nc1S(C)(=O)=O | 0.6 | 0 | 14%[15.4 µM] | -0.3 | x | 28%

Part of the list above, field by field:
Compound: CC(=O)Nc1ccc(S(=O)(=O)N(C)CC(=O)NC2=NCCS2)cc1
  Menin MLL FP FL = -0.3
  TRPML1 inh = 21
  gsp ag = 2%
  TRPML1 ag = -0.4
  ClpP mod = -24%
  gsp antagonist = 6%

Compound: COc1cc(NC(=O)CCNS(=O)(=O)c2cc(Br)cnc2N)cc(OC)c1
  Menin MLL FP FL = x
  TRPML1 inh = 11
  gsp ag = -40%[inhibitor]
  TRPML1 ag = -0.3
  ClpP mod = -8.3%
  gsp antagonist = -2%

Compound: COc1ccc(/C(N)=N/OC(=O)Cc2ccc(C)cc2)cc1
  Menin MLL FP FL = 5.3
  TRPML1 inh = -5
  gsp ag = 10%[15.4 µM]
  TRPML1 ag = 2.9
  ClpP mod = x
  gsp antagonist = 2%

Remaining list, next part:
SMILES | Menin MLL FP FL | TRPML1 inh | gsp ag | TRPML1 ag | ClpP mod | gsp antagonist
CCCCCOc1ccc(Cn2c(=O)oc3ccccc32)cc1 | x | 2 | x | 2.2 | 0.8% | x
CC1=NN(c2nc(-c3ccc(Cl)cc3)cs2)C(=O)C1 | u | 7 | 8% | -0.2 | -5.3% | 7%
O=C(NCc1ccco1)c1cc(-c2ccncc2)nc2ccccc12 | 2.6 | 16 | 10% | -0.2 | -6.0% | -16%
CS(=O)(=O)N(CC(=O)N1CCN(Cc2ccccc2)CC1)C1CCCCC1 | 5.9 | -11 | -1% | -0.3 | -1.6% | -14%
CCNC(=S)N1CCN(c2cccc(C(F)(F)F)c2)CC1 | 0.8 | 4 | 2% | -0.5 | -0.2% | -2%
CCOc1ccccc1N1C(=O)CC(Nc2ccc(N3CCOCC3)cc2)C1=O (stereo unspecified) | 2.2 | -16 | -49%[inhibitor] | -0.7 | 0.3% | -17%
COc1cc(C(F)(F)F)nc2ccc(C#CCOC(=O)Nc3ccccc3)cc12 | u | 67 | 10% | 0.4 | x | -13%
Cc1nn(CC(=O)N2CCC(C)CC2)c(=O)c2cccn12 | 1.7 | 46 | u | -1.1 | 0.6% | 0%
N#Cc1c(NC(=O)CSc2nnnn2C2CCCC2)sc2c1CCCC2 | 2.3 | -3 | -1% | 0.0 | -0.5% | -9%
Cc1cc(C(=O)CSc2nncs2)c(C)n1-c1c(C)n(C)n(-c2ccccc2)c1=O | 5.9 | 7 | 19% | -0.2 | 0.0% | -2%
CC1(C)CC(=O)c2cc(C(=O)Nc3ccc(Br)cc3)c(=O)[nH]c2C1 | x | 15 | x | -0.1 | -7.3% | x
CNS(=O)(=O)c1cn(CC(=O)Nc2cccc(OC)c2)cc1S(=O)(=O)NC | x | 9 | x | -0.5 | -1.5% | x
CC(=O)CSc1nc(N)c(C#N)c(-c2cccs2)c1C#N | 3.0 | 1 | 2% | 7.5 | -4.4% | 0%
O=C(CCS(=O)(=O)c1ccc(Cl)cc1)N1CCN(c2ccc(F)cc2)CC1 | x | 5 | -18% | -0.2 | -4.5% | -1%
O=C(N/N=C\c1ccc(Cl)cc1)C1=NOC2COC3(CCN(c4ccc([N+](=O)[O-])cc4)CC3)OCC12 (stereo unspecified) | 4.7 | x | 21% | x | -3.0% | -22%
CN(Cc1ccccc1)C(=O)COC(=O)c1ccc(Cl)cc1N | 2.3 | -22 | 19%[15.4 µM] | -1.0 | x | -67%
